Assay outcomes (PubChem BioAssay)
GLA inh pH 4.5: alpha-galactosidase A (human) inhibition, pH 4.5. 230,000 tested, under 10 active. P06280. purified enzyme, 4-MU-alpha-Gal fluorescence, pH 4.5. activity change, negative = inhibition, % at 105 µM; inconclusive = small, poorly fitted or top-dose-only inhibition, or a rising curve; inactive = flat fitted curve, though single readings scatter; no compound was filed as active;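 also: 0% = full activity with enzyme and -100% = basal without enzyme; dose as in the result columns while the protocol names 77 µM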
Target sequence (P06280 whole entry, looked up): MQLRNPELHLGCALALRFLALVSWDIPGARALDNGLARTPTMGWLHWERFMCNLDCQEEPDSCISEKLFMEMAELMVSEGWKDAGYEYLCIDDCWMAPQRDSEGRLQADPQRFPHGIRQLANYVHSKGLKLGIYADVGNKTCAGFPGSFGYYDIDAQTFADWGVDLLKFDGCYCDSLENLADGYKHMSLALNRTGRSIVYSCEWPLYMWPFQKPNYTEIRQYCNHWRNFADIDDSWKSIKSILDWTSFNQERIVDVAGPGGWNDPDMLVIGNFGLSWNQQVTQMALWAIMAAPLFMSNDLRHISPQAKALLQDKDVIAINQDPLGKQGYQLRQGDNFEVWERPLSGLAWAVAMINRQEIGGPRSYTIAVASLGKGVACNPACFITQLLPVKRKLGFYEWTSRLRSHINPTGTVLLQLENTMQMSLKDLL
Rango dissoc inh: inhibitors of RanGTP-induced Rango-importin beta complex dissociation. Biochemical FRET Rango-importin beta, RanGTP-induced dissociation. O95149+P62826. AID 540253. Potency, µM (titrated, usually from 46.1 µM), for inactives: at the highest dose activity change, negative = inhibition. actives 0.071% (n = 340,000); active means falling FRET ratio curve, often poorly fitted, with flat reads before Ran was added; inconclusive means other falling curves, or compound fluorescence or quenching; inactive means flat or rising ratio curve;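 also: potency is read from the fitted curve at half-maximal effect; % of control where 0% means no effect; nearly all actives have a fitted effect of over 45% in size; -100% = wells without RanGTP and RCC1; the record marks most hits as doubtful in a second field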
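FRET read at 45 min, room temperature: inhibitors block the CFP/YFP signal rise when RanGTP (0.6 uM Ran, 2 mM GTP, 0.2 uM RCC1) frees Rango (0.1 uM) from importin beta (0.25 uM). Pre-read after 5 min compound exposure flags interference.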
miR-21 FLuc: raises the signal of a miR-21 reporter; 340,000 tested, under 10 active; HeLa miR-21 FLuc reporter, luciferase, 48 h; Potency, µM (highest dose often 38.3 µM), without a hit: top-dose reporter change, positive = more light; active = well fitted rising curve with a large enough effect; inconclusive = small, poorly fitted or top-dose-only effect; inactive = no such curve, though single readings can be large or run the other way;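 also: % of control where 0% means no effect; miR-21 action dims this reporter so a rising signal means less miR-21 action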
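HeLa cells stably expressing CMV-driven firefly luciferase with a downstream miR-21 binding sequence, endogenously expressing miR-21, were treated with titrations (up to about 40uM final) for 48 hours at 37 degree Celsius. Luciferase luminescence was read after lysis.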
Rango complex inh: inhibitors of Rango-importin beta complex formation. Q14974. Rango CFP/YFP FRET sensor + importin beta, 45 min. Potency, µM (top dose mostly 92.2 µM), for the others: at the top dose inhibition of complex formation. actives 0.031% (n = 340,000); active = rising FRET ratio curve, often small or poorly fitted; inconclusive = mostly compound fluorescence or quenching in the first reads; inactive = flat curves in all reads;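 also: potency is read from the fitted curve at half-maximal effect; 0% = DMSO wells and 100% = buffer wells lacking importin beta; nearly all actives have a fitted effect of over 15% in size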
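Inhibition scored from the CFP 486 nm/YFP 530 nm FRET ratio 45 min after adding 0.125 microM importin beta to 50 nM Rango biosensor preincubated 5 min with compound (room temperature, PBS with DTT, Tween-20, BSA). No-importin wells as positive control.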
The depositor's hits bear a star; ? = inconclusive; . = not tested or not shown. These rows are one share of the data; rates above refer to the full screens.

miR-21 FLuc	GLA inh pH 4.5	Rango complex inh	Rango dissoc inh	SMILES
-54%	.	0.5%	9%	O=C(Nc1ccc(C(=O)N2CCCCC2)cc1)Nc1cccc(Cl)c1
0%	-10	-0.4%	?	Cc1ccc(C)n1CCN1CCN(C(=O)c2ccc(Cl)cc2)CC1
-4%	.	0.2%	-8%	CCN(C(=O)CCN1C(=O)S/C(=C\c2ccccc2)C1=O)C1CCS(=O)(=O)C1 (centres undefined)
-6%	-5	.	.	CCN(CC)CCN(C(=O)c1ccc(N2C(=O)CCC2=O)cc1)c1nc2cc3c(cc2s1)OCO3
22%	.	?	?	CC(=O)c1cccc(NS(=O)(=O)c2ccc(-c3cnc(C4CC4)o3)cc2)c1
-5%	.	-0.2%	0%	C[C@@H](NC(=O)[C@@H]1Cc2ccccc2CN1)C(=O)NC1CCCCC1
-11%	.	-6.3%	4%	Cn1nnc2cc(NC(=O)Nc3cccc(C(F)(F)F)c3)ccc21
2%	0	-1.2%	-18%	Cc1ccc(C)n1-c1ccc(C(=O)NCc2ccncc2)cc1
-3%	-3	1.5%	-5%	COc1ccc(NC(=S)N2C3CCC2CC(NC(=O)NC24CC5CC(CC(C5)C2)C4)C3)c(OC)c1 (centres undefined)
-1%	1	3.9%	0%	Cc1ccc2ncccc2c1N
-11%	4	0.6%	-12%	Cc1ccc(-n2c(-c3ccncc3)n[nH]c2=S)cc1C
-1%	-6	1.2%	-3%	COc1cc(NC(=O)COC(=O)c2nc3nc(C)cc(C)n3n2)cc(OC)c1
-4%	.	1.8%	-18%	FC(F)(F)c1ccccc1NC(=S)N1CCCCCC1
1%	5	-4.8%	2%	CCN(CC)c1ccc(C(=O)N/N=C(\C)c2ccc(OC)c(OC)c2)cc1
2%	2	-1.0%	1%	CCNC(=O)c1ccc(-n2nc(C(F)(F)F)c3c2CCCC3)cc1
0%	5	2.3%	1%	CCOCCCNC(=O)C1CCC(=O)N1CCc1ccccc1 (centres undefined)
-1%	-11	-4.4%	18%	O=C(NCC1CCCO1)C(=O)NCC(c1ccco1)N1CCN(c2ccc(F)cc2)CC1 (centres undefined)
.	.	-0.8%	19%	Cc1cccc(NC(=O)Cn2ccn(-c3ccc4c(c3)OCCO4)c(=O)c2=O)c1
-4%	0	?	?	O=C(O)c1ccc(Nc2nc(-c3cc4ccccc4oc3=O)cs2)cc1O
3%	3	-5.3%	-7%	Cc1cccc2c1-c1sc(C(=O)Nc3cccc([N+](=O)[O-])c3C)cc1CO2
-9%	-2	0.9%	7%	CC(C)c1ccc(N(C(=O)c2csnn2)C(C(=O)NC(C)(C)C)c2cccnc2)cc1 (centres undefined)
-3%	.	-2.0%	9%	COc1ccc(CC(=O)NC(C)CCc2ccccc2)cc1OC (centres undefined)
0%	.	0.1%	14%	O=C(NCc1ccc(Cl)cc1)C1CCCN(c2ncnc3c2nc2n3CCCCC2)C1 (centres undefined)
-8%	-24	8.5%	2%	CC(C)(C)NC(=O)CSc1nccn1Cc1ccccc1
-7%	3	-2.5%	-4%	CC(=O)NNC(=O)CC(=O)Nc1nc(C23CC4CC(CC(C4)C2)C3)cs1
0%	2	-0.1%	0%	COc1cccc(N(CC(=O)Nc2cccnc2)S(C)(=O)=O)c1
-17%	-2	0.3%	0%	COc1ccc(C/C(C)=N/NC(=S)Nc2ccc(C(C)C)cc2)cc1
-42%	-1	-0.1%	8%	CN(C)S(=O)(=O)c1ccc(NC(=O)c2ccccn2)cc1
.	.	-0.4%	8%	C=C1CCN([C@@H](Cc2ccccc2)C(=O)NC2CCN(Cc3ccccc3)CC2)S(=O)(=O)c2ccccc21
-5%	.	8.1%	-11%	O=C(CNC(=O)c1ccc(Br)cc1)N/N=C/c1cccnc1

2 records drawn at random from those above:
miR-21 FLuc	GLA inh pH 4.5	Rango complex inh	Rango dissoc inh	SMILES
0%	.	0.1%	14%	O=C(NCc1ccc(Cl)cc1)C1CCCN(c2ncnc3c2nc2n3CCCCC2)C1 (centres undefined)
0%	2	-0.1%	0%	COc1cccc(N(CC(=O)Nc2cccnc2)S(C)(=O)=O)c1

(continued)
miR-21 FLuc	GLA inh pH 4.5	Rango complex inh	Rango dissoc inh	SMILES
-12%	-1	-1.1%	-8%	Cc1cc(C(=O)COC(=O)Cn2c(C(F)(F)F)nc3ccccc32)c(C)n1Cc1ccco1
-12%	2	0.0%	-11%	CN(Cc1ccccc1)C(=O)c1ccccc1-c1ccccc1
-4%	.	-2.8%	4%	Cc1ccc(OCC(O)CNC2CCCC2)cc1C (centres undefined)
5%	-19	0.1%	-14%	CCOC(=O)c1[nH]c2ccc(F)cc2c1NC(=O)c1cc(OC)c(OC)c(OC)c1
-9%	0	?	0%	COc1ccc(Nc2nc3[nH]c(=O)cc(O)c3s2)cc1
-1%	-10	?	-17%	Cc1oc(/N=C/c2cccc3ccccc23)c(C#N)c1C
0%	.	-3.4%	4%	O=C(NCc1ccc2c(c1)OCO2)C(=O)NCC1OCCCN1S(=O)(=O)c1ccc(F)cc1 (centres undefined)
.	.	-0.1%	-8%	CNC(=O)OCN1C(=O)C2CC=CCC2C1=O (centres undefined)
-8%	3	-0.3%	-13%	CC(C)CN(CC(C)C)S(=O)(=O)N1CCC(C(=O)N2CCc3ccccc3C2)CC1
-2%	7	0.6%	11%	CCNC(=O)NC(=O)C(C)Sc1ncc(C(F)(F)F)cc1Cl (centres undefined)
9%	-2	1.5%	-3%	Cc1cc2cc(CNC(=O)C(C)Oc3ccccc3)ccc2n1C (centres undefined)
.	.	1.7%	-9%	Cc1ccc(C(=O)Cc2ccccc2)c(O)c1
0%	.	2.1%	-4%	Cc1ccc(NC(=O)CCNS(=O)(=O)c2ccc3[nH]c(=O)oc3c2)cc1C
-13%	.	-1.4%	0%	O=C(NNC(=O)c1cc2ccccc2oc1=O)c1ccccc1[N+](=O)[O-]
-6%	2	?	-10%	CCOC(=O)CSC1=C(C#N)C(c2ccc(C)cc2)C2=C(CCCC2=O)N1 (centres undefined)
-5%	-10	-0.2%	-1%	COc1cccc(C(=O)NCC(=O)N/N=C/c2ccc(OC(=O)c3cccs3)c(OC)c2)c1
.	.	3.6%	6%	CCOc1ccccc1C(=O)NC(C)CCc1ccccc1 (centres undefined)
0%	.	1.5%	-6%	COc1cc(C(=O)NC(=S)Nc2ccc3[nH]c(=O)[nH]c3c2)cc(OC)c1OC
-22%	-1	7.6%	-14%	N#C/C(=C\c1ccc[nH]1)Sc1nc2ccccc2s1
-68%	-2	?	?	COc1ccc(C2CC(c3ccccc3)=NN2c2ccc(N)cc2)cc1 (centres undefined)
-20%	2	-4.0%	0%	c1coc(-c2nn3c(-c4ccco4)nnc3s2)c1
-2%	-11	-3.5%	-23%	Cc1ccc(C)c(-c2nc3ccc(N)cc3[nH]2)c1
-2%	-2	-1.0%	33%	NC(=O)NC(=O)COC(=O)[C@H](Cc1ccccc1)NC(=O)c1cccs1
12%	5	3.4%	2%	CC(/C=C(\NC(=O)c1ccccc1)C(=O)N=Nc1c(O)[nH]c2ccc(C)cc12)=C\c1ccccc1
-7%	0	6.7%	-1%	O=C(NCCC(=O)N1CCN(c2ncccn2)CC1)c1ccccc1
-4%	-5	3.3%	7%	Cc1ccc(-c2n[nH]c3c2C(c2ccccc2)N(c2ccc(C(=O)O)cc2)C3=O)cc1 (centres undefined)
.	.	-0.4%	23%	O=C(NCCc1nc(-c2ccc(F)cc2)no1)c1ccc(F)cc1
15%	5	0.0%	1%	CC(=O)Nc1ccc(S(=O)(=O)NCCSCc2c(Cl)cccc2Cl)cc1
.	.	-0.9%	-7%	CCCn1c(SCC(=O)c2c(N)n(C3CC3)c(=O)[nH]c2=O)nc2cc(S(N)(=O)=O)ccc21
-1%	.	-1.7%	-6%	CC(C)OCCCNC(=O)CCCC(=O)Nc1ccc(OCCc2ccccc2)cc1
9%	.	-0.3%	16%	CC1CCCN(C(=O)CN2C(=O)C(C)Oc3ccccc32)C1 (centres undefined)
-2%	5	4.3%	33%	COc1ccc(NC(=S)N2CCC(c3nc4ccccc4[nH]3)CC2)c(OC)c1
1%	3	4.9%	-20%	COCCNC(=O)CCCn1c(=O)c2cc(OC)c(OC)cc2n(CC(=O)Nc2ccc(C)c(F)c2)c1=O
0%	-9	-0.1%	20%	COc1cc(NC(=O)c2cc(CC(C)C)on2)c(OC)cc1Cl
-43%	8	-0.7%	14%	CS(=O)c1ccccc1-c1nc(-c2cccc(Cl)c2)no1 (centres undefined)
-46%	.	-8.2%	5%	CC/C(=N\NC(=O)c1cc(C2CC2)[nH]n1)c1ccccc1
-19%	-7	0.0%	3%	CCOC(=O)C(=CNNc1ccccc1)C(=O)OCC
-21%	-14	-4.7%	-6%	COc1cc(/C=N/NC(=O)c2cc(C)n(-c3ccc(F)cc3)c2C)cc(OC)c1O
0%	6	-3.9%	-10%	COc1cccc(N2CCN(Cc3nnnn3C3CCCCC3)CC2)c1
.	.	1.2%	-6%	Oc1ccc(C[C@@H]2CNCCN2CCc2cc(C(F)(F)F)cc(C(F)(F)F)c2)cc1

Three of the entries above in order of the GLA inh pH 4.5 value, rising.
miR-21 FLuc	GLA inh pH 4.5	Rango complex inh	Rango dissoc inh	SMILES
-19%	-7	0.0%	3%	CCOC(=O)C(=CNNc1ccccc1)C(=O)OCC
-2%	5	4.3%	33%	COc1ccc(NC(=S)N2CCC(c3nc4ccccc4[nH]3)CC2)c(OC)c1
-43%	8	-0.7%	14%	CS(=O)c1ccccc1-c1nc(-c2cccc(Cl)c2)no1 (centres undefined)

Continuation.
miR-21 FLuc	GLA inh pH 4.5	Rango complex inh	Rango dissoc inh	SMILES
.	.	0.2%	0%	CC(=O)Nc1ccc(S(=O)(=O)NC(C)C(=O)OCCOc2ccc(F)cc2)cc1 (centres undefined)
-5%	5	1.0%	2%	CCC(C)Oc1cccc(OCCCCN2C(=O)NC(C)(C)C2=O)c1 (centres undefined)
.	.	6.2%	-14%	O=C(COc1coc(CN2CCN(c3ccccc3)CC2)cc1=O)Nc1ccccc1F
-18%	-15	4.0%	0%	Nc1ccc(C(=O)Nc2nccs2)cc1
?	2	2.3%	-15%	CN1C(=O)/C(=C\C(=O)c2cccs2)c2ccccc21
?	.	-0.6%	12%	Cc1ccc(C)c(N2CCN(C(=O)CCC(=O)N3CCOc4ccc(Cl)cc43)CC2)c1
.	.	4.6%	-7%	O=C(c1ccc([N+](=O)[O-])o1)N1CCCCCC1
-1%	-4	-1.4%	-6%	Cc1onc(-c2ccccc2)c1C(=O)NCC(O)c1ccccc1 (centres undefined)
-4%	.	0.8%	5%	CC(=O)Nc1ccc(S(=O)(=O)N2CCC(N3CCCC3)CC2)cc1
-11%	-1	-3.3%	-5%	CC(C)CCN(C)c1ccc(/C=N/n2cnnc2)cc1
-1%	.	5.4%	4%	CCC(C)N(C(=O)COC(=O)CNC(=O)c1sc2ccccc2c1Cl)C1CCS(=O)(=O)C1 (centres undefined)
-6%	.	-3.1%	-4%	CCC(CC)C(=O)c1c[nH]c(C(=O)NC2CCCCCC2)c1
-6%	.	0.5%	-12%	Cc1ccc(S(=O)(=O)c2c(C)c(C)c(C)[nH]c2=O)cc1
9%	4	-4.6%	-12%	COc1cc2c(cc1OC)C(c1cccc([N+](=O)[O-])c1)N(C(=O)c1ccc(F)cc1)CC2 (centres undefined)
-37%	6	1.5%	-7%	Nc1ccc2oc(=O)c3ccccc3c2c1
-5%	.	-1.3%	-16%	COc1ccc(-c2csc3ncnc(N4CCN(c5cccc(OC)c5)CC4)c23)cc1
7%	-1	2.3%	1%	CCCC(=O)N1CCN(c2ccc(NC(=O)c3ccc([N+](=O)[O-])o3)cc2)CC1
